High-throughput results from PubChem BioAssay.
GIRK2 activ: opens human GIRK2 potassium channels; P48051; HEK293-GIRK2 thallium flux, Thallos fluorescence; calls only for hits at 25 µM; 0.05% of 63,000 active; AID 1259325;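 active = among the strongest 0.2% of first-round signals and kept after retests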;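 also: first round at about 10 µM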
Target sequence (P48051 whole entry, looked up): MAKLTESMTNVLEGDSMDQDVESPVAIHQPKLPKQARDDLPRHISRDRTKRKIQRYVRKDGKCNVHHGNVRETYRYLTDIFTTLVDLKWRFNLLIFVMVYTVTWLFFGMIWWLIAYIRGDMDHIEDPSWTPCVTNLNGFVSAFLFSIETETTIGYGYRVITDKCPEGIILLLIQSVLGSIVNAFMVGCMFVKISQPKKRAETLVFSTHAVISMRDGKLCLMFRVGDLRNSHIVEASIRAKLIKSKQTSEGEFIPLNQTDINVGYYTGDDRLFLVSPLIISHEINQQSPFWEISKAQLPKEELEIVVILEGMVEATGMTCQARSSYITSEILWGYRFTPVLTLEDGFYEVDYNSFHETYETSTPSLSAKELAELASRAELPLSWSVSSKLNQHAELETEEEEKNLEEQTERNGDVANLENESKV
Calls only; i = inactive. This is a subset (hit frequency here may not be typical).

SMILES	GIRK2 activ
COc1ccc(N=Cc2c(NCc3ccco3)nc3c(C)cccn3c2=O)cc1	i
CCC(=O)NCCc1nc2ccccc2n1Cc1ccc(F)cc1	i
CCOc1ccc(S(=O)(=O)NCc2cc(-c3ccccn3)n(C)n2)cc1C	i
COC(=O)CCCCCC[C@@H]1[C@@H](CC[C@@H](O)CSc2ccccc2F)[C@H](O)C[C@@H]1O	i
O=C(Cc1c[nH]c2ccccc12)Nc1cc(N2CCCCC2)ncn1	i
COc1ccccc1-n1nnc(C(=O)NCc2nc3ccccc3n2C)c1-c1ccccn1	i
O=C1CN(C(=O)CSc2nnc(-c3ccccc3)c(-c3ccccc3)n2)c2ccccc2N1	i
O=C(C1COCC(=O)N1Cc1ccccc1)N1CCN(c2ccc(C(F)(F)F)cn2)CC1 (centres undefined)	i
O=C(NCCCS(=O)(=O)N1CCN(c2ncccn2)CC1)C(c1ccccc1)c1ccccc1	i
Cn1nc(C2CCN(CC(=O)Nc3cccnc3)CC2)n(-c2ccccc2)c1=O	i
Cc1ccc(=O)n(C(C)C(=O)NCCOc2ccc(F)cc2)n1 (centres undefined)	i
COc1nn(C)cc1C(=O)Nc1cccc(-c2nc3ccccc3[nH]2)c1	i
CCOC(=O)N1CCC(NC(=O)c2cnn3c(-c4ccc(C)c(C)c4)ccnc23)CC1	i
CCCC/C=C/C=C1/C(=O)C=CC1C/C=C\CCCC(=O)O (centres undefined)	i
COc1cccc(Oc2cn[nH]c2-c2ccc(OCC(=O)NN)cc2O)c1	i
O=C(Nc1ccc2c(c1)C(=O)N1CCCCC1CCO2)c1ccc(Cn2ccnc2)cc1 (centres undefined)	i
Cc1cc(SCc2ccccc2Cl)ncn1	i
N#Cc1ccc(Cl)cc1NC(=O)C(=O)NC1CCCCCC1	i
Cc1ccc(-c2nc(C#N)c(N3CCN(C(=O)c4ccc(Cl)cc4Cl)CC3)o2)cc1	i
CC(C)(C)c1ccc(S(=O)(=O)Nc2ccc(C(=O)NCc3ccco3)cc2)cc1	i
CCc1ccc(S(=O)(=O)N2CC(c3nc4ccccc4[nH]3)C2)s1	i
COC(=O)c1ccccc1NC(=O)c1ccc(Oc2coc3cc(OC)ccc3c2=O)cc1	i
Cc1ccccc1NC(=O)Cn1c(C)cc(C)c(C#N)c1=O	i
Cc1ccc2c(c1)N(C)C(=O)c1cc(NC(=O)Nc3cccs3)ccc1O2	i
CCOc1cccc2sc(N(CCn3nc(C)cc3C)C(=O)c3ccc(C#N)cc3)nc12	i
SMILES	GIRK2 activ
COC1(CNC(=O)CCSc2ccccc2)CCSC1 (centres undefined)	i
Cc1ccc(S(=O)(=O)N(C)c2ccc(C(=O)NCc3ccccc3)cc2)cc1	i
COc1ccc(C2(C)NC(=O)N(CC(=O)Nc3ccccc3C)C2=O)cc1 (centres undefined)	i
COc1ccc(NC(=O)Nc2ccc(Nc3cc(-n4cccn4)ncn3)cc2)c(OC)c1	i
CN(C)S(=O)(=O)c1ccc(C(=O)N2CC(c3nc(Cc4cccs4)no3)C2)cc1	i
O=C(Cc1ccc(NC(=O)Nc2cccs2)cc1)NCc1cccs1	i
CCOCCCn1c(C)c(C)n2c3c(=O)n(Cc4cc(C)ccc4C)c(=O)n(C)c3nc12	i
Cc1cccc(C)c1NC(=O)Cn1nc(N2CCSCC2)c2ccccc2c1=O	i
COc1ccc(OC)c2sc(N(CCCn3ccnc3)C(=O)c3ccco3)nc12	i
CCOc1ccc(N=CC2=C(O)CC(C)(C)CC2=O)cc1	i
CCCN1CCCc2cc(CCNC(=O)C(=O)NCc3ccccc3Cl)ccc21	i
COc1ccc(Cl)cc1NC(=O)CCCSc1ccc(NC(=O)C2CC2)nn1	i
Cn1c(=O)[nH]c(=O)c2c1nc(N1CCCCC1)n2CC(=O)c1ccccc1	i
Cc1csc(NC(=O)CN2CC(c3nc(C4CC4)no3)C2)n1	i
Cc1nc(SCc2ccccc2F)[nH]c(=O)c1CC(=O)NC1CC1	i
O=C(CN1CCN(CC(O)C2CC2)CC1)NCc1ccccc1Cl (centres undefined)	i
Cc1cc(C)c(C)c(OCC(O)CSc2ccccn2)c1 (centres undefined)	i
Cc1ccsc1C(O)CNC(=O)C(=O)NCc1ccccc1Cl (centres undefined)	i
CCOc1ccc(CC(=O)NCC2CCC(c3nc4ccccc4[nH]3)CC2)cc1 (centres undefined)	i
CCn1c(C2CC(=O)N(c3ccccc3OC)C2)nc2ccccc21 (centres undefined)	i
CC1CCN(c2nc3c(c(=O)[nH]c(=O)n3C)n2Cc2cccc3ccccc23)CC1	i
CS(=O)(=O)N1CCC(C(=O)Nc2nnc(-c3ccsc3)o2)CC1	i
CC(C)c1nnc2c(SCC(=O)Nc3ccc(Cl)cc3C(F)(F)F)nc3ccccc3n12	i
Cc1ccc(-n2nnc(C(=O)NCc3csc4ncnn34)n2)cc1	i
CS(=O)(=O)N1N=C(C2CC2)CC1c1cc2cc3c(cc2nc1Cl)OCO3 (centres undefined)	i

The closing seven records of the part above open the next one:
SMILES	GIRK2 activ
CCOc1ccc(CC(=O)NCC2CCC(c3nc4ccccc4[nH]3)CC2)cc1 (centres undefined)	i
CCn1c(C2CC(=O)N(c3ccccc3OC)C2)nc2ccccc21 (centres undefined)	i
CC1CCN(c2nc3c(c(=O)[nH]c(=O)n3C)n2Cc2cccc3ccccc23)CC1	i
CS(=O)(=O)N1CCC(C(=O)Nc2nnc(-c3ccsc3)o2)CC1	i
CC(C)c1nnc2c(SCC(=O)Nc3ccc(Cl)cc3C(F)(F)F)nc3ccccc3n12	i
Cc1ccc(-n2nnc(C(=O)NCc3csc4ncnn34)n2)cc1	i
CS(=O)(=O)N1N=C(C2CC2)CC1c1cc2cc3c(cc2nc1Cl)OCO3 (centres undefined)	i
O=C(Cn1nc2c(c1NC(=O)Cc1ccc(F)cc1)CSC2)NCc1ccco1	i
Cc1ccc(S(=O)(=O)c2nc(SCc3ccco3)sc2N2CCOCC2)cc1	i
COc1cc(NC(=O)C2COc3ccccc3O2)ncn1 (centres undefined)	i
COc1ccc(Cn2c(SCC(=O)NCCC(C)C)nc3c(sc4ncccc43)c2=O)cc1	i
O=C(NCCCc1ccccc1)N(CCc1cccs1)Cc1ccco1	i
COc1ccc(NC(=O)c2ccc3nn(CC(=O)Nc4cccc(SC)c4)c(=O)n3c2)cc1	i
Cc1ccc(C)c(NCC(=O)Nc2ncc(Cc3ccccc3)s2)c1	i
Cn1nnn(-c2ccc(NS(=O)(=O)c3ccc(Br)cc3)cc2)c1=O	i
O=C(c1csc2nc(-c3ccc(F)cc3)cn12)N1CCc2ccccc2C1	i
O=C(CCc1ccccc1)N1CC(Oc2nc3ccccc3s2)C1	i
O=C(Cn1ncn2nc(-c3ccccc3)cc2c1=O)N1CCN(c2ccccc2F)CC1	i
Cc1nc(C)c(C(=O)Nc2cnc(N3CCN(c4ccccn4)CC3)nc2)s1	i
CCCCn1c(-n2nc(C)cc2C)nc2c1c(=O)n(CC(=O)OC)c(=O)n2C	i
COCCNC(=O)N1CCC(CSc2ccc(OC)cc2)CC1	i
CCC=CCC1=C(CCCCC(CCC(=O)O)OC(C)=O)CCC1=O (centres undefined)	i
O=C(Nc1ccc(-n2nnc(C(=O)N3CCCC3)n2)cc1)c1ccc2nsnc2c1	i
CN1C=CC=C/C1=C(/C#N)c1nc2ccccc2[nH]1	i
OCCCc1cnc(=S)[nH]c1	i
CCCCCCCC/C=C\CCCCCCCC(=O)NCC(=O)O	i
COc1cccc(C(=O)N2CCN(c3oc(-c4ccc(Cl)cc4)nc3C#N)CC2)c1	i
COc1ccc(SCCCC(=O)Nc2sc3c(c2C#N)CCC3)cc1	i
C=CCNC(=O)NCc1cccc(Oc2ccc(F)cc2)c1	i
C=CCn1c(=O)c2c(nc3n(-c4cccc(OC)c4)c(-c4ccccc4)cn23)n(C)c1=O	i
O=C(Cc1csc(NC(=O)c2ccc(=O)[nH]c2)n1)NCc1nc(-c2ccccc2)no1	i
Cc1[nH]c(=O)[nH]c(=O)c1CCc1nnc(SCC(=O)NCc2ccccc2Cl)o1	i
SMILES	GIRK2 activ
CCOC(=O)N1CCN(C(=O)CCCSc2ccc(NC(C)=O)nn2)CC1	i
O=C(Cn1nc2c(Oc3ccccc3)nccn2c1=O)Nc1ccccc1C(F)(F)F	i
O=C(NCC1(O)CCc2ccccc2C1)c1cc(-c2ccco2)on1 (centres undefined)	i
Cc1cc(C)c2sc(NC(=O)C3CCN(S(=O)(=O)c4ccc(F)cc4)CC3)nc2c1	i
COC(=O)c1ccc(NC(=O)C(=O)NCc2ccccc2OC)cc1	i
CSc1ccc(CC(=O)N2CC(Oc3nc4ccccc4s3)C2)cc1	i
O=C(/C=C/c1ccccc1Cl)N1CCCSCC1CN1CCOCC1 (centres undefined)	i
Cc1ccc(-c2nn(-c3ccccc3)cc2C2CC(c3cccs3)=NN2C(=O)CNCCO)cc1 (centres undefined)	i
Cc1nc2ccccn2c1C(=O)Nc1ccc2c(c1)C(=O)Nc1ccccc1O2	i
Cc1nc(-c2ccco2)sc1CNS(=O)(=O)c1c(C)noc1C	i
Cc1nsc(C(=O)NCCOCCO)n1	i
COc1cc([N+](=O)[O-])ccc1NC(=O)c1cc2ccccc2o1	i
CC(=O)Nc1ccc(SCCCC(=O)N2CCN(C(=O)c3ccco3)CC2)nn1	i
CCOc1nn(CC)cc1C(=O)Nc1nnc(SCC(N)=O)s1	i
COC(=O)c1sccc1S(=O)(=O)NCC(c1ccc2c(c1)CCO2)N(C)C (centres undefined)	i
Cc1ccc(CNC(=O)c2snc(-c3ccccn3)c2NC(=O)C(C)C)cc1	i
COc1ccc(NC(=O)Cn2nc3c(Oc4ccccc4)nccn3c2=O)cc1	i
Cc1ccc2c(Nc3ccc4c(c3)OCCO4)c(C(=O)N3CCCCC3C)cnc2n1 (centres undefined)	i
Cc1cc(C)n(CCNC(=O)c2nnn(-c3ccc(C(F)(F)F)cc3)n2)n1	i
O=C(NCc1cc(-c2ccncc2)n(C2CCCC2)n1)c1nc2ccccc2s1	i
CCOC(=O)c1ccc(-n2c(C)cn3c4c(=O)n(CCN5CCOCC5)c(=O)n(C)c4nc23)cc1	i
N#Cc1ccc(Oc2nccc(-c3c(-c4ccc(F)cc4)ncn3C3CCNCC3)n2)cc1	i
COc1ccccc1N1CCN(c2cc(SCC(=O)Nc3ccccc3F)ncn2)CC1	i
CCc1ccc(-c2[nH]ncc2C(=O)N2CCC(NC(=O)c3cccc(F)c3)CC2)cc1	i
Cc1cc(C)cc(NC(=O)COc2cc(C)nc(N3CCCC(C)C3)n2)c1 (centres undefined)	i

Four records picked at random from those above:
SMILES	GIRK2 activ
O=C(Nc1ccc(-n2nnc(C(=O)N3CCCC3)n2)cc1)c1ccc2nsnc2c1	i
Cc1ccc(S(=O)(=O)c2nc(SCc3ccco3)sc2N2CCOCC2)cc1	i
Cc1ccsc1C(O)CNC(=O)C(=O)NCc1ccccc1Cl (centres undefined)	i
O=C(Nc1ccc2c(c1)C(=O)N1CCCCC1CCO2)c1ccc(Cn2ccnc2)cc1 (centres undefined)	i

An excerpt of the results above, for reference:
SMILES	GIRK2 activ
COc1ccc(NC(=O)Cn2nc3c(Oc4ccccc4)nccn3c2=O)cc1	i
Cc1ccc2c(Nc3ccc4c(c3)OCCO4)c(C(=O)N3CCCCC3C)cnc2n1 (centres undefined)	i
Cc1cc(C)n(CCNC(=O)c2nnn(-c3ccc(C(F)(F)F)cc3)n2)n1	i
O=C(NCc1cc(-c2ccncc2)n(C2CCCC2)n1)c1nc2ccccc2s1	i
CCOC(=O)c1ccc(-n2c(C)cn3c4c(=O)n(CCN5CCOCC5)c(=O)n(C)c4nc23)cc1	i

More entries follow:
SMILES	GIRK2 activ
COc1ccc(NC(=O)Nc2cnc(OC)nc2)c(C)c1	i
COc1coc(C(=O)Nc2ccc(C)c(Cl)c2)cc1=O	i
COc1ccccc1OCC#CCNS(=O)(=O)c1cccs1	i
Cc1ccc(N2CC(C(=O)NCCn3ccc(C(F)(F)F)n3)CC2=O)cc1C (centres undefined)	i
COc1cc(OC)cc(C(=O)Nc2ccc3c(c2)C(=O)NCC3)c1	i
COc1ccc(C)cc1NC(=O)CN1CCC(c2nc(-c3ccccc3Cl)no2)CC1	i
COc1ccccc1-c1cc(C(=O)Nc2cccc(OC(F)F)c2)[nH]n1	i
CC(C)NC(=O)N1CCN(c2nc3c(C(F)(F)F)cccc3s2)CC1	i
O=C(/C=C/c1cc2c(cc1Br)OCO2)c1ccccn1	i
CSCC(C)(O)CNC(=O)c1cc(C)cs1 (centres undefined)	i
COC(=O)C1(Cc2ccc(O)cc2)OC(=O)C(OC)=C1c1ccc(O)cc1 (centres undefined)	i
COc1cccc(NC(=O)CCCCCn2nnc3ccccc3c2=O)c1	i
CC(=O)N(O)CCCC1NC(=O)C(CCCN(O)C(C)=O)NC(=O)C(CCCN(O)C(C)=O)NC(=O)C(Cc2ccccc2)NC(=O)C(CC(C)C)NC(=O)C(C)NC1=O (centres undefined)	i
Cn1cccc1C(CNC(=O)C(=O)NCc1ccc(F)cc1)N1CCc2ccccc2C1 (centres undefined)	i
CCOc1ccc(NC(=O)/C=C/c2ccc(CC)o2)cc1	i
Cc1noc(-c2ccc(NC(=O)c3cc(-c4ccco4)on3)cc2)n1	i
CCCc1nnsc1C(=O)N1CCc2nc(NC(=O)NC(C)C)sc2C1	i
COc1ccc(-c2csc(-n3nc(C)cc3NC(C)=O)n2)cc1OC	i
CCOC(=O)CCC(=O)N1CCN(Cc2c(C)noc2C)CC1	i
O=C(Cn1nc(S(=O)(=O)c2cccc(F)c2)ccc1=O)N1CCN(c2ccccc2)CC1	i
COc1ccc(C(C)NC(=O)c2ccc(-n3nncc3C)cc2)cc1 (centres undefined)	i
COc1ccccc1C(O)Cn1cc(C(=O)NCc2ccccc2C(F)(F)F)nn1 (centres undefined)	i
CCCCCCCCCCCCCC(=O)N[C@H](C)C(O)c1ccccc1 (some centres undefined)	i
Cc1ccc(C(=O)NC2=N/C(=C(/C#N)C(=O)Nc3ccccc3)c3ccccc32)cc1	i
COc1ccc(CNC(=O)NC2CC(=O)N(C3CC3)C2)cc1 (centres undefined)	i
COc1ccccc1N(CC(O)CN1CCN(C)CC1)S(=O)(=O)c1ccccc1 (centres undefined)	i
CN(C)c1cccc(C(=O)Nc2ccc3c(c2)N(S(=O)(=O)c2ccc(F)cc2)CCC3)c1	i
Nc1c(C(=O)N2CCCCCC2)sc(=S)n1Cc1ccccc1	i
CCCCC[C@H](O)/C=C/[C@H]1[C@H](O)CC(=O)[C@@H]1C/C=C\CCCC(=O)NCCO	i
CSc1ccc(NC(=O)c2ccc(Cl)s2)cc1	i
